# Vaccinia stage – Vaccinia orthopox stage-specific inhibition; Vaccinia-infected cells, mCherry/Venus stage reporter fluorescence; stronger effect = lower value; some inactives read as strong as hits; activity change (mCherry), % (concentration not given with the values); 89,000 compounds, 0.01% hits;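 active = mCherry past -33% and 40 or more points under the early reporter, replicates agreeing; inconclusive = past -33% without that gap or agreement; tested in A549 cells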;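 note: scaled between vehicle wells and reference inhibitor wells; 23 nL library stock went into each well; one replicate is shown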
# Vaccinia stage Venus – further read-out of Vaccinia stage, marked with its call; activity change (Venus), %; measured here: Venus reporter, other viral stage;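 negative = less Venus signal; first of two replicates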
# * hit, by the source's call; ? = inconclusive; nt = not tested or not shown.
# Screens in order: Vaccinia stage, Vaccinia stage Venus
Cc1ccc(S(=O)(=O)N(C)C[C@@H]2Oc3ncc(C#Cc4ccc(F)cc4)cc3C(=O)N([C@H](C)CO)C[C@@H]2C)cc1
→ ?, nt
C[C@H](CO)N1C[C@H](C)[C@H](CN(C)CC2CCCCC2)Oc2c(NS(=O)(=O)c3ccc(F)cc3)cccc2C1=O
→ 0, -3
COc1ccc2c3c([nH]c2c1)[C@H](CO)N(C(=O)Nc1ccc(F)cc1)CC31CN(Cc2ccc(F)cc2)C1
→ ?, nt
O=C(Nc1ccc2c(c1)[C@H]1C[C@H](CC(=O)N3CCOCC3)O[C@@H](CO)[C@H]1O2)C1CCOCC1
→ 2, -3
O=C(C[C@H]1C[C@H]2c3cc(NS(=O)(=O)c4ccc(F)cc4)ccc3O[C@H]2[C@@H](CO)O1)NCc1ccncc1
→ 4, 5
CN(C)CC(=O)Nc1ccc2c(c1)[C@@H]1C[C@@H](CC(=O)NCc3ccncc3)O[C@H](CO)[C@@H]1O2
→ 16, 9
O=C(C[C@H]1C=C[C@@H](NC(=O)Nc2ccc3c(c2)OCO3)[C@@H](CO)O1)NCc1ccc2c(c1)OCO2
→ 11, 8
O=C(C[C@H]1CC[C@H]2[C@@H](COC[C@@H](O)CN2C(=O)Nc2ccc(F)cc2)O1)NCCCN1CCOCC1
→ 1, 2
C[C@H]1CN([C@@H](C)CO)S(=O)(=O)c2ccc(C#CCN(C)C)cc2O[C@H]1CN(C)C(=O)C1CCC1
→ 5, 15
CO[C@@H]1CN(C)C(=O)c2cc(NC(=O)c3cc(C)on3)ccc2OC[C@@H](C)N(C(C)=O)C[C@@H]1C
→ 3, 7
CC(=O)N(C)C[C@@H]1Oc2cc(C#Cc3cccc(F)c3)ccc2S(=O)(=O)N([C@@H](C)CO)C[C@H]1C
→ ?, nt
CCCN1[C@@H]2Cn3c(ccc(-c4cccc(F)c4)c3=O)[C@H]1[C@@H](C(=O)N(C)C)[C@@H]2CO
→ 8, 7
CCS(=O)(=O)N1CC(=O)N2[C@H](C1)[C@@H](c1ccc(C#Cc3cccc(F)c3)cc1)[C@@H]2CO
→ -17, -39
C[C@H](CO)N1C[C@H](C)[C@@H](CN(C)S(=O)(=O)c2cn(C)cn2)Oc2c(NC(=O)Nc3ccc4c(c3)OCO4)cccc2C1=O
→ 14, 8
C[C@@H]1CN([C@H](C)CO)C(=O)c2cccc(NS(C)(=O)=O)c2O[C@H]1CN(C)Cc1ccccc1
→ 16, 10
COc1ccccc1S(=O)(=O)N[C@H]1CC[C@H](CCNC(=O)C2CCCC2)O[C@H]1CO
→ -5, 7
COc1ccccc1C#Cc1ccc2c(c1)O[C@H](CN(C)Cc1cccnc1)[C@@H](C)CN([C@H](C)CO)S2(=O)=O
→ ?, nt
C[C@@H]1CN([C@H](C)CO)C(=O)c2cc(NS(=O)(=O)c3ccc(F)cc3)ccc2O[C@@H]1CN(C)S(=O)(=O)c1cccs1
→ 4, 2
Cc1ccc(S[C@]2(C(=O)NCC(F)(F)F)CC(=O)N(C3CCCCC3)[C@@H]2c2ccc(CO)cc2I)cc1
→ -2, 0
CN1c2ccc(Br)cc2[C@H]2[C@H](CCN2C(=O)C2CCCC2)[C@@H]1CO
→ -17, -11

# Entries from the list above containing an aryl methoxy group (3):
# Screens in order: Vaccinia stage, Vaccinia stage Venus
COc1ccc2c3c([nH]c2c1)[C@H](CO)N(C(=O)Nc1ccc(F)cc1)CC31CN(Cc2ccc(F)cc2)C1
→ ?, nt
COc1ccccc1S(=O)(=O)N[C@H]1CC[C@H](CCNC(=O)C2CCCC2)O[C@H]1CO
→ -5, 7
COc1ccccc1C#Cc1ccc2c(c1)O[C@H](CN(C)Cc1cccnc1)[C@@H](C)CN([C@H](C)CO)S2(=O)=O
→ ?, nt

# More results follow:
# Screens in order: Vaccinia stage, Vaccinia stage Venus
C[C@H](CO)N1C[C@H](C)[C@@H](CN(C)C(=O)Nc2ccc(F)cc2)Oc2ccc(NC(=O)Cc3ccccc3)cc2CC1=O
→ 3, -3
C[C@@H]1CN([C@@H](C)CO)C(=O)c2cc(C3=CCCCC3)cnc2O[C@@H]1CN(C)C(=O)NC1CCCC1
→ -27, -19
CCCC#Cc1cnc2c(c1)C(=O)N([C@H](C)CO)C[C@H](C)[C@H](CN(C)S(C)(=O)=O)O2
→ 15, 14
Cc1nn(C)cc1NC(=O)C[C@@H]1CC[C@H]2[C@H](COc3ccc(NC(=O)NC(C)C)cc3C(=O)N2C)O1
→ 7, 14
O=C(C[C@@H]1CC[C@H]2NC[C@H](O)COC[C@@H]2O1)NCCc1ccncc1
→ -5, 0
C[C@H]1CN([C@@H](C)CO)C(=O)c2cc(NS(=O)(=O)c3ccc(Cl)cc3)ccc2O[C@@H]1CN(C)S(=O)(=O)c1cccs1
→ -10, -5
CCOC(=O)CCCCCC(=O)Nc1ccc2c(c1)C(=O)N([C@@H](C)CO)C[C@H](C)[C@H](CN(C)C(=O)Nc1ccc(C(F)(F)F)cc1)OCCCC[C@H](C)O2
→ -20, -18
CC(C)C#Cc1ccc2c(c1)O[C@H](CN(C)Cc1ccccc1)[C@@H](C)CN([C@@H](C)CO)S2(=O)=O
→ -25, -23
C[C@@H]1CN([C@H](C)CO)C(=O)c2cc(C#CCN(C)C)cnc2O[C@H]1CN(C)C(=O)c1cnccn1
→ 11, 9
C[C@@H]1CN([C@@H](C)CO)C(=O)c2cccc(NC(=O)Nc3ccc(C(F)(F)F)cc3)c2O[C@@H]1CN(C)Cc1ccccc1
→ -24, -20
COC(=O)[C@]1(Cc2ccccc2CN=[N+]=[N-])N=C(c2ccc(OCCCO)cc2)O[C@@H]1c1ccccc1
→ ?, nt
COc1ccccc1S(=O)(=O)N[C@H]1CC[C@@H](CC(=O)NCc2cc(F)cc(F)c2)O[C@@H]1CO
→ 17, 13
COc1ccc2c3c([nH]c2c1)[C@@H](CO)N(C(=O)C1CCCCC1)CC31CCN(Cc2nccs2)CC1
→ -20, -15
CO[C@H]1CC[C@H]2CCN(C)C(=O)CCCN(C)C(=O)c3cccc(C#N)c3OC[C@@H]1O2
→ 17, 9
COc1ccccc1-c1cn(CC[C@H]2CC[C@@H](NC(=O)C3CC3)[C@H](CO)O2)nn1
→ -10, -2
C[C@H](CO)N1C[C@H](C)[C@@H](CN(C)S(C)(=O)=O)Oc2ncc(C3=CCCC3)cc2C1=O
→ -14, -7
C[C@H]1CCCCO[C@H](CN(C)CC2CCCCC2)[C@@H](C)CN([C@@H](C)CO)C(=O)c2cc(NS(=O)(=O)c3cn(C)cn3)ccc2O1
→ 10, 2
O=C(C[C@H]1CC[C@@H]2[C@H](COC[C@H](O)CN2CCC(F)(F)F)O1)NCC1CC1
→ 0, -2
C[C@H](CO)N1C[C@H](C)[C@@H](CN(C)C)Oc2ccc(NC(=O)c3ccncc3)cc2CC1=O
→ 6, 5
C/C=C/c1ccc([C@@H]2[C@H](CO)N(C(=O)C3CCCC3)C23CN(S(C)(=O)=O)C3)cc1
→ 1, 6
COc1ccc(NC(=O)Nc2ccc3c(c2)C(=O)N([C@H](C)CO)C[C@H](C)[C@@H](CN(C)C(=O)Nc2ccc(C(F)(F)F)cc2)OCCCC[C@@H](C)O3)cc1
→ 13, 7
CN1c2ccc(-c3cccc(F)c3)cc2[C@@H]2[C@@H](CCN2C(=O)C2CC2)[C@@H]1CO
→ ?, nt
O=C(NCc1ccccc1Cl)[C@H]1[C@H](CO)[C@H]2Cn3c(cccc3=O)[C@H]2N1C(=O)C1CCC1
→ 2, 6
C[C@H]1CN([C@@H](C)CO)C(=O)CCCn2cc(nn2)CO[C@@H]1CN(C)Cc1cccc2c1OCCCO2
→ 16, 14
C[C@H]1CCCCO[C@H](CN(C)S(=O)(=O)c2ccc(Cl)cc2)[C@@H](C)CN([C@@H](C)CO)C(=O)c2cc(NS(=O)(=O)c3cccs3)ccc2O1
→ -19, -17
COc1ccc(S(=O)(=O)Nc2ccc3c(c2)CC(=O)N([C@@H](C)CO)C[C@@H](C)[C@@H](CN(C)CC2CC2)O3)cc1
→ -10, -2
CN(C)CC(=O)Nc1ccc2c(c1)[C@H]1C[C@@H](CC(=O)N(C)C)O[C@@H](CO)[C@H]1O2
→ -10, 0
COc1ccc(S(=O)(=O)Nc2cccc3c2O[C@@H](CN(C)S(=O)(=O)c2ccc(OC)cc2)[C@H](C)CN([C@H](C)CO)C3=O)cc1
→ 13, 7
COC(=O)[C@@H]1[C@@H](CO)[C@@H]2Cn3c(ccc(-c4ccncc4)c3=O)[C@@H]2N1Cc1ccccc1F
→ 7, 12
C[C@@H]1CN([C@H](C)CO)C(=O)c2cc(NC(=O)Nc3ccc(C(F)(F)F)cc3)ccc2O[C@H]1CN(C)Cc1ccc(Oc2ccccc2)cc1
→ 27, 7
COCC(=O)N1[C@H](CO)[C@H](c2ccccc2-c2cccc(C)c2)[C@@H]1C#N
→ 18, 10
COc1ccc2c3c(n(C)c2c1)[C@@H](CO)N(Cc1ccncc1)CC31CCN(C(=O)NC(C)C)CC1
→ 21, 22
O=C(N[C@H]1CC[C@H](CCNC(=O)C2CCCC2)O[C@@H]1CO)c1ccccn1
→ -4, -1
COc1cccc(CNC(=O)C[C@H]2C=C[C@@H](NC(=O)C3CC3)[C@H](CO)O2)c1
→ 16, 12
COc1ccc(NC(=O)Nc2ccc3c(c2)CC(=O)N([C@H](C)CO)C[C@H](C)[C@@H](CN(C)CC2CC2)O3)cc1
→ -10, -4
O=C(Nc1ccc2c(c1)OCO2)N[C@H]1C=C[C@H](CC(=O)N2CCN(c3ccccc3)CC2)O[C@H]1CO
→ -17, 0
C[C@H](CO)N1C[C@H](C)[C@H](CN(C)Cc2cccnc2)Oc2cc(-c3cncnc3)ccc2S1(=O)=O
→ 19, 4
CNC[C@@H]1Oc2cc(-c3ccccc3F)ccc2S(=O)(=O)N([C@@H](C)CO)C[C@H]1C
→ -29, -22
Cc1noc(C)c1S(=O)(=O)Nc1ccc2c(c1)C(=O)N([C@H](C)CO)C[C@H](C)[C@@H](CN(C)C(=O)Nc1ccc3c(c1)OCO3)OCCCC[C@@H](C)O2
→ -1, -4
C[C@@H]1CN([C@H](C)CO)C(=O)c2cc(C#CC3(O)CCCC3)cnc2O[C@H]1CN(C)Cc1ccccn1
→ 5, 0
O=C(C1CCOCC1)N1C[C@H]2[C@@H](c3ccccc31)[C@@H](CO)N2Cc1ccccc1Cl
→ 3, 1
C[C@H](CO)N1C[C@H](C)[C@H](CN(C)S(=O)(=O)c2cccs2)Oc2c(NC(=O)CCCCCC(=O)Nc3ccccc3N)cccc2C1=O
→ 7, 4
C[C@H](CO)N1C[C@H](C)[C@H](CN(C)S(C)(=O)=O)Oc2ccc(NS(=O)(=O)c3ccc(Cl)cc3)cc2CC1=O
→ 8, 18
C[C@@H]1CN([C@H](C)CO)C(=O)c2cc(NC(=O)CCC(F)(F)F)ccc2O[C@H]1CN(C)Cc1ccc(C(=O)Nc2ccccc2N)cc1
→ -4, -5
C[C@@H]1CN([C@H](C)CO)S(=O)(=O)c2ccc(C#Cc3ccccc3F)cc2O[C@@H]1CN(C)C(=O)Cc1ccncc1
→ ?, nt
O=C(C[C@@H]1CC[C@H]2NC[C@@H](O)COC[C@@H]2O1)NCCc1ccccc1
→ -10, -4
COc1ccc(CN(C)C[C@@H]2Oc3ccc(NS(=O)(=O)c4ccccc4)cc3C(=O)N([C@H](C)CO)C[C@H]2C)cc1
→ 17, 13
CO[C@@H]1CN(C)C(=O)c2ccc(NC(C)=O)cc2OC[C@H](C)N(C(=O)C2CCCCC2)C[C@H]1C
→ -6, -6
O=S(=O)(N[C@@H]1CC[C@@H](CCn2cc(-c3cccc(F)c3)nn2)O[C@@H]1CO)c1ccccc1
→ 22, 14
N#C[C@H]1[C@@H](c2ccc(C#CC3(O)CCCC3)cc2)[C@H](CO)N1C(=O)C1CC1
→ 18, 6

# Later entries.
# Screens in order: Vaccinia stage, Vaccinia stage Venus
COC(=O)[C@H]1[C@H](CO)[C@H]2Cn3c(ccc(C4=CCCCC4)c3=O)[C@@H]1N2CC1CC1
→ 10, 2
C[C@@H]1CN([C@@H](C)CO)C(=O)c2cc(NC(=O)Nc3ccc(F)cc3)ccc2O[C@@H]1CN(C)C(=O)Nc1ccccc1
→ 9, 10
C[C@@H]1CN([C@H](C)CO)C(=O)c2cc(NC(=O)C3CCCCC3)ccc2O[C@H]1CN(C)Cc1ccc(C(=O)O)cc1
→ 12, 15
O=C(O)C[C@@H]1C[C@@H]2c3cc(NC(=O)NC4CCCCC4)ccc3O[C@@H]2[C@H](CO)O1
→ 9, 1
O=C(C[C@@H]1C[C@@H]2c3cc(NC(=O)C4CCOCC4)ccc3O[C@@H]2[C@@H](CO)O1)NCc1ccccc1F
→ 6, 3
CC(C)CC#Cc1ccc([C@H]2[C@@H](CO)N3C(=O)CN(C(=O)Cc4ccccc4)C[C@H]23)cc1
→ ?, nt
C[C@@H]1CN([C@@H](C)CO)C(=O)c2cc(Br)cnc2O[C@@H]1CN(C)C(=O)Nc1ccccc1
→ 10, 0
CCCNC(=O)C[C@@H]1CC[C@@H]2[C@@H](COc3ccc(NC(=O)NC(C)C)cc3C(=O)N2C)O1
→ 17, 6
C[C@@H]1CN([C@@H](C)CO)S(=O)(=O)c2ccc(C#CCN(C)C)cc2O[C@@H]1CN(C)Cc1ccc(F)cc1
→ -22, -17
Cc1cc(C(=O)Nc2cccc3c2O[C@@H](CN(C)Cc2ccc(C(=O)O)cc2)[C@H](C)CN([C@@H](C)CO)C3=O)n(C)n1
→ 10, 1
CNC[C@@H]1OCCCC[C@H](C)Oc2ccc(NC(=O)CCC(F)(F)F)cc2C(=O)N([C@H](C)CO)C[C@H]1C
→ 2, 3

# A stretch taken from the entries so far:
# Screens in order: Vaccinia stage, Vaccinia stage Venus
C[C@@H]1CN([C@@H](C)CO)S(=O)(=O)c2ccc(C#CCN(C)C)cc2O[C@@H]1CN(C)Cc1ccc(F)cc1
→ -22, -17
Cc1cc(C(=O)Nc2cccc3c2O[C@@H](CN(C)Cc2ccc(C(=O)O)cc2)[C@H](C)CN([C@@H](C)CO)C3=O)n(C)n1
→ 10, 1
CNC[C@@H]1OCCCC[C@H](C)Oc2ccc(NC(=O)CCC(F)(F)F)cc2C(=O)N([C@H](C)CO)C[C@H]1C
→ 2, 3

# Screens as filed in PubChem BioAssay.

# This is a subset; count on the stated rates, not on these rows.
